N370S GC mod = N370S glucocerebrosidase modulation, Gaucher chaperone candidate | Potency, µM (series often up to 59.4 µM), inactives show top-dose activity change, negative = inhibition, actives largely listed as inhibitors | 330,000 tested, 0.092% active | P04062 | AID 2101 | N370S GC spleen homogenate, 4MU-glucoside fluorescence;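 note: 0% = full enzyme activity and -100% = no enzyme basal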
FEN1 inh = human FEN1 inhibition | P39748 | Recombinant FEN1 flap cleavage, fluorescence, 15 min | Potency, µM (doses to about 114 µM), for inactives: at the highest dose activity change, negative = inhibition, actives largely listed as inhibitors | 390,000 tested, 0.35% active | AID 588795; note: nearly all actives have a fitted effect of over 65% in size
Target sequence (P39748 whole entry, looked up): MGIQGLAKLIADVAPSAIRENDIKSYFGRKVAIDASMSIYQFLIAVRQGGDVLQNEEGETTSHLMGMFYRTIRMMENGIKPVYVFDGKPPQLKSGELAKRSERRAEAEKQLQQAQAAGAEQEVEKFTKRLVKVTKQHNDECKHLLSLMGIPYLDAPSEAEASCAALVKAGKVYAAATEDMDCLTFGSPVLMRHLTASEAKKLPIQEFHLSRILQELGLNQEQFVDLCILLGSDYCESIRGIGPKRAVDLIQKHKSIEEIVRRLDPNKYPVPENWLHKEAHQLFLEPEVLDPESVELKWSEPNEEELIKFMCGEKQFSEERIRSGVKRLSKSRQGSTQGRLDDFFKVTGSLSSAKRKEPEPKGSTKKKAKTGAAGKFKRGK
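With each library titrated from low to high concentration, compounds met 10 nM FEN1 for 15 min at room temperature before 50 nM substrate was added; readings at 0 and 15 min fed four-parameter Hill curve fits.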
The depositor's hits bear a star; ? = inconclusive; . = not tested or not shown; & = joins results of further samples; [ ] = remark or other dose. Calls come from the whole dose curve; as a rule, active = well fitted curve in the direction sought with a large enough effect; inconclusive = small, poorly fitted or top-dose-only effect, or another doubt; inactive = no such curve, though single readings can be large; an effect the other way counts as inactive or inconclusive. Unless noted, % is set by controls: 0 for no effect and ±100 for the full control effect; potency is the fitted concentration of half-maximal effect. A portion of the library; most or all hits stand in other tables.

SMILES	N370S GC mod	FEN1 inh
COc1ccc(NC(=O)c2nn(C)c3c2CSc2ccc(C)cc2-3)cc1OC	.	-18%
CC1CC(C)CN(S(=O)(=O)N2CCCC(C(=O)NCCCN3CCCCC3C)C2)C1 (stereo not drawn)	-7%	18%
CC(C)CC(=O)Nc1ccc(S(=O)(=O)N2CCCC2)cc1	-3%	2%
O=C(COc1ccccc1Cl)Nc1nnc(S(=O)(=O)N2CCCC2)s1	0%	14%&-1%
C[C@H](NC(=O)c1nc[nH]c1C(=O)NCC(=O)OC(C)(C)C)C(=O)OC(C)(C)C	7%	-16%
CCCS(=O)(=O)N1CCC(C(=O)N2CCOCC2)CC1	4%	-2%
COc1ccc(CN(C)C(=O)c2ccc(NS(=O)(=O)c3ccccc3)cc2)c(OC)c1	0%	2%
Cc1cccc(-n2ncc3c(NC4CCCCC4)ncnc32)c1	9%	15%
O=c1cc(O)nc(SCc2ccccc2)[nH]1	-6%	-16%
O=C(CCCc1nc2ccccc2s1)N1CCN(c2ccccc2)CC1	7%	-11%
O=C(c1ccccc1Br)N(Cc1ccccc1F)C1CCS(=O)(=O)C1 (stereo not drawn)	.	3%
COc1ccc(-c2cc(C(=O)N3CCN(c4ccccc4)CC3)no2)cc1OC	-8%	1%
CCOC(=O)CN(C(=O)COc1nc(-c2ccccc2)cc(C)c1C#N)c1ccc(F)cc1	7%	-10%
O=C(O)c1ccccc1C(=O)Nc1ccccn1	0%	-14%
COc1ccc(C2=NOC(C(=O)NCCCN3CCOCC3)C2)cc1 (stereo not drawn)	8%	-20%
COc1ccc(C/C(C)=N/NC(=O)c2ccc(Cl)cc2)cc1	-16%	-4%
CC(=O)N=c1sc(S(N)(=O)=O)nn1C	22%	-1%
NC(=O)C1CCN(C(=O)c2ccc(F)c(S(=O)(=O)N3CCOCC3)c2)CC1	.	3%
O=c1[nH]c(=O)c2nc3c4ccccc4c4ccccc4c3nc2[nH]1	2%	?
COc1ccc(-c2noc(CCC(=O)Nc3cccnc3)n2)cc1OC	1%[2.35 µM]	4%
Cc1cc(SCc2ccc(F)cc2)nc(=O)[nH]1	1%	2%
COc1cc(NC(=O)Cc2ccc([N+](=O)[O-])cc2)c(C(=O)O)cc1OC	-15%	4%
CCN(CC)C(=O)C(=O)Nc1cc(C(F)(F)F)ccc1Cl	-7%	-3%
COc1ccc(C(=O)N2CCN(Cc3cc(OC)ccc3OC)CC2)cc1	-4%	-1%
Cc1cccc(OCC(O)Cn2c(=N)n(CCN3CCOCC3)c3ccccc32)c1 (stereo not drawn)	-4%	5%

Brought forward from above: 6 compounds, followed by the next part.
SMILES	N370S GC mod	FEN1 inh
COc1ccc(-c2noc(CCC(=O)Nc3cccnc3)n2)cc1OC	1%[2.35 µM]	4%
Cc1cc(SCc2ccc(F)cc2)nc(=O)[nH]1	1%	2%
COc1cc(NC(=O)Cc2ccc([N+](=O)[O-])cc2)c(C(=O)O)cc1OC	-15%	4%
CCN(CC)C(=O)C(=O)Nc1cc(C(F)(F)F)ccc1Cl	-7%	-3%
COc1ccc(C(=O)N2CCN(Cc3cc(OC)ccc3OC)CC2)cc1	-4%	-1%
Cc1cccc(OCC(O)Cn2c(=N)n(CCN3CCOCC3)c3ccccc32)c1 (stereo not drawn)	-4%	5%
Cc1oc2cc(O)ccc2c(=O)c1Oc1ccccc1Br	18%	17%
O=C(CCN1CCN(c2ccccc2)CC1)c1ccc(Cl)cc1	-16%	-15%
CCN(C(=O)Cc1cccs1)c1nnc(-c2cccnc2)s1	-1%	-8%
CC(=O)Nc1ccc(S(=O)(=O)N/N=C/c2ccc(C)s2)cc1	5%	23%
COc1ccc(NC(=O)c2cc([N+](=O)[O-])ccc2O)cc1	-20%	-15%
O=C(Cc1ccccc1)N1CCN(C(=O)c2cccs2)CC1	5%	7%
O=C(C(=O)N1CCOCC1)c1cn(CC(=O)N2CCCCC2)c2ccccc12	-9%	7%
COc1ccc(S(=O)(=O)NCCSCc2ccccc2C)cc1Br	7%	-26%
CCOc1ccc(CCNC(=O)C2CCN(c3nn4c(=O)cc(C)nc4s3)CC2)cc1	2%	11%
CC(=O)Nc1ccccc1Oc1ccccc1	6%	1%
O=C(O)/C=C/c1ccc(-n2ccnc2)cc1	-3%	7%
Cc1ccc(N/C=C/c2onc(C)c2[N+](=O)[O-])cc1	1%	-1%
CCOC(=O)c1c(C)[nH]c(C(=O)COC(=O)C2CC2C)c1C (stereo not drawn)	4%	0%
CC(Oc1ccccc1F)C(=O)NCC1(N2CCOCC2)CCCCC1 (stereo not drawn)	.	-8%
N#C/C(=C\c1ccc(F)c(Cl)c1)S(=O)(=O)c1ccccn1	-16%	-1%
N#Cc1ccc(C(=O)Nc2nnc(-c3cccs3)o2)cc1	-12%	3%
Cc1cc(C)c(NC(=O)c2cccc(NC(=O)c3ccco3)c2)c(C)c1	2%	24%
CCOc1ccc(N/C=C/C(=O)c2ccccc2)cc1	-2%	-1%
Cc1ncc(C23CC4CC(CC(C4)C2)C3)[nH]1	7%[2.35 µM]	1%
CCN(CC(=O)Nc1c(F)cccc1F)C(=O)CCC(=O)c1ccc(F)cc1	0%	-5%
Cn1c(-c2ccc(F)cc2)cnc1SCC(=O)Nc1ccccc1N1CCOCC1	2%	-3%
COC(=O)c1ccc(NC(=O)C2CC(=O)N(c3ccc(C)cc3)C2)cc1 (stereo not drawn)	4%	-2%
O=C1c2cnc3nc(SCc4cccc(Cl)c4)nn3c2CC2c3ccccc3CCN12 (stereo not drawn)	-3%	4%
CCOC(=O)C1(Cc2cccc(F)c2)CCN(C(=O)C2CCCO2)CC1 (stereo not drawn)	7%	2%
Cc1ccc(-c2nc3c(=O)n(-c4ccccc4)c4c(c(=O)n(C)c(=O)n4C)c3o2)cc1	7%	1%
(continued)
SMILES	N370S GC mod	FEN1 inh
COC(=O)Cn1cnc2c(C#N)c3n(c2c1=O)CCCCC3	9%	-1%
COCCN(C(=O)CNC(=O)c1ccco1)C(C(=O)NC1CCCC1)c1ccccc1 (stereo not drawn)	-12%	9%
Cc1cc(C)c2nc(SCC(=O)N3CCCCC3)c(C#N)cc2c1	10%	9%
Cc1noc(C)c1COC(=O)c1cc(F)c(F)cc1Cl	-1%	5%
O=C(CCC(=O)NNc1nc2ccccc2c2nc(-c3ccccc3)nn12)NCCCN1CCCC1=O	-19%	-17%
O=C(Nc1ccc(F)c(Cl)c1)C1CC(=O)N(Cc2ccco2)C1 (stereo not drawn)	.	-5%
O=C(NN1C(=O)NC2(CCCCC2)C1=O)c1cc2cc(Cl)ccc2o1	.	-4%
O=C(Oc1ccccc1)N1CCC2(CC1)CCN(c1ncccn1)CC2	-7%	.
CC(=O)c1ccc(N2CCN(Cc3nc(Cc4ccccc4)no3)CC2)cc1	6%	3%
Cc1cc(O)c(C(C[N+](=O)[O-])c2ccc(Cl)cc2)c(=O)o1 (stereo not drawn)	-15%	1%
C=CCOc1c(CNc2ccc(C(=O)O)cc2)cccc1OC	-5%	10%
Cc1ccc(NC(=O)C2CCN(S(=O)(=O)c3ccc4[nH]c(=O)ccc4c3)CC2)c(C)c1	1%	-8%
CCCCNc1cnn(-c2ccccc2)c(=O)c1Cl	8%	6%
CCn1c(CSCc2ccc(C)cc2)nnc1SCC(=O)NCc1ccccc1	6%	-13%
CC1CCCC(NC(=O)COC(=O)c2cccc(S(=O)(=O)N3CCCCC3)c2)C1C (stereo not drawn)	.	-6%
Cc1cccc(C(=O)Nc2ccc(C(=O)/C=C/c3ccncc3)cc2)c1	-2%	-24%
O=C(c1cc(-c2ccccn2)nc2ccccc12)N1CCN(c2ncccn2)CC1	5%	-17%
COC(=O)C1=C(O)/C(=C/c2ccc(OCC(=O)Nc3ccccc3)cc2)N=C1C	-16%	?
CCOc1ccc(NC(=O)CN(C)C(=O)CCCc2c[nH]c3ccccc23)cc1OCC	-3%	-12%
CCOc1cccc(OCCn2cnc3ccccc3c2=O)c1	-15%	-2%
CC(C)CN1C(=O)NC(NS(=O)(=O)c2ccc(N)cc2)(C(F)(F)F)C1=O (stereo not drawn)	1%	1%
Cc1ccc(C(=O)N2CC(C)OC(C)C2)c(Cl)c1 (stereo not drawn)	7%	-5%
O=C(O)c1ccc(S(=O)(=O)NC2CC2)cc1	-6%	-32%
CCC(CC)N1CCN(S(=O)(=O)c2ccc(OC)cc2)CC1	-8%	-1%
Cc1ccccc1NC(=O)c1ccc(C)c(S(=O)(=O)Nc2cccnc2)c1	-17%	4%

Record cards (already shown). Screens in order: N370S GC mod	FEN1 inh
Entry for `CC(C)CN1C(=O)NC(NS(=O)(=O)c2ccc(N)cc2)(C(F)(F)F)C1=O` (stereo not drawn) : 1%	1%
Entry for `C=CCOc1c(CNc2ccc(C(=O)O)cc2)cccc1OC` : -5%	10%
Entry for `O=C(Nc1ccc(F)c(Cl)c1)C1CC(=O)N(Cc2ccco2)C1` (stereo not drawn) : .	-5%
Entry for `CC(=O)c1ccc(N2CCN(Cc3nc(Cc4ccccc4)no3)CC2)cc1` : 6%	3%

Other records:
SMILES	N370S GC mod	FEN1 inh
Cc1cc(C)c(NC(=O)C2CC(=O)N(Cc3ccccc3)C2)c(C)c1 (stereo not drawn)	1%	3%
COc1cccc(COC(=O)C2CCN(S(=O)(=O)c3ccc(F)cc3)CC2)c1OC	-5%	-2%
O=C(CSc1n[nH]c(Cc2ccccc2)n1)Nc1ccccc1Br	2%	1%
CC(C(=O)N1CCN(C(=O)c2ccco2)CC1)n1sc2ccccc2c1=O (stereo not drawn)	-3%	-2%
CCCOc1ccc(CN(C(=O)c2cccc(OC)c2)C2CCS(=O)(=O)C2)cc1 (stereo not drawn)	-3%	-4%
Cc1cc(C)c2nc(SCC(=O)Nc3cc(C)on3)c(C)cc2c1	-12%	5%
O=C(COc1ccc(S(=O)(=O)N2CCCC2)cc1)N1CCCC1	-23%	5%
CC(CNC(=O)C1CCN(C(=O)c2cc3sccc3n2C)CC1)c1ccccc1 (stereo not drawn)	.	-2%
CCCn1nc(NC(=O)c2ccncc2)c2cc3ccccc3nc21	-1%	-15%
CCCCCNC(=O)C1CC(=O)OC12CCCCC2 (stereo not drawn)	-8%	-3%
Cc1ccc(CN(C(=O)c2ccc(Cl)c([N+](=O)[O-])c2)C2CCS(=O)(=O)C2)o1 (stereo not drawn)	-27%	-10%
O=S1(=O)N=C(N2CCCc3ccccc32)c2ccccc21	1%	-2%
Cc1noc(/C=C/c2nn(C)cc2Cl)c1[N+](=O)[O-]	-2%	-17%
Cc1nn(C2CCS(=O)(=O)C2)c(C)c1CN(C)C(=O)c1ccc(S(=O)(=O)N(C)C)cc1 (stereo not drawn)	.	-6%
O=S(=O)(Nc1ccc(Cl)cc1)c1ccc(N2CCOCC2)c(NC(=S)NC2CC2)c1	0%	12%
COc1ccc(-c2coc3c(O)c(OC)ccc3c2=O)cc1	6%	.
Cc1ccc2nc(CSc3nc(C)cc(C)c3C#N)[nH]c2c1	12%[12.8 µM]	-31%
COc1ccc(Cl)cc1NC(=S)NNC(=O)c1cccnc1	-3%	2%
C[C@H](CO)N1C[C@H](C)[C@@H](CN(C)C(=O)NC2CCCCC2)Oc2ccc(NS(=O)(=O)c3ccc(F)cc3)cc2C1=O	.	-8%
COc1cc(C2NC(=O)NC(c3ccccc3)=C2C(C)=O)ccc1OCC#N (stereo not drawn)	-8%	25%
COC(=O)c1[nH]c2cc(OC)ccc2c1NC(=O)c1nonc1C	-2%	-16%
O=C(CCS(=O)(=O)c1cccs1)Nc1ccc(C(=O)NCc2ccc(F)cc2)cc1	8%	-9%
Cc1cccc(C)c1NC(=O)c1cnn(-c2ccccc2)c1C	4%	0%
Cc1ccc(C(=O)Nc2ccc3c(c2)OCCO3)cc1S(=O)(=O)N1CCOCC1	.	-6%
CCSc1nc2n(n1)C(c1ccc(C(=O)O)cc1)C(C(=O)Nc1ccccc1C)=C(C)N2 (stereo not drawn)	.	26%
(listing goes on)
SMILES	N370S GC mod	FEN1 inh
CCOc1ncccc1C(=O)Nc1cc(S(=O)(=O)N2CCCCC2)ccc1OC	.	-3%
CCOC(=O)CCNC(=O)CNC(=O)OCc1ccccc1	3%	-5%
Cc1nc2cc(-c3cccc(F)c3)nn2c(C)c1CCC(=O)NCCc1ccccc1	.	12%
COc1ccc(CCC(C)NCc2cccc(Br)c2)cc1 (stereo not drawn)	-23%	20%
CC(C)OCCCNC(=O)c1cc2c(s1)CS(=O)(=O)C2	-19%	-4%
O=c1[nH]c(=S)c2ncn(-c3ccccc3)c2[nH]1	6%	1%
C/C(=N\NC(=O)c1ccccc1Br)c1ccc(N2CCOCC2)cc1	3%	15%
CCOC(=O)NC(NC(=S)Nc1ccc(OCC)cc1)C(Cl)(Cl)Cl (stereo not drawn)	6%	7%
Cc1ccc(-n2nc(C(=O)O)c3ccccc3c2=O)cc1C	2%	4%
Cc1cccc(-c2nc(CN3CCCC(C(=O)NC4CCCCCC4)C3)c(C)o2)c1 (stereo not drawn)	-5%	1%
O=C(CSc1nccc(=O)[nH]1)NN(c1ccccc1)c1ccccc1	-4%	4%
CCOc1ccc2nc(SCC)[nH]c2c1	-2%	-14%
CC(C)CC(c1nnnn1C(C)C)N1CCN(c2cccc(Cl)c2)CC1 (stereo not drawn)	-1%	-12%
Cc1ccccc1NC(=O)Cc1nc(COC(=O)/C=C/c2ccccc2)cs1	?	-8%
O=C(CSc1nc2ccccc2s1)Nc1ccc2c(c1)OCO2	4%	17%
CC(=O)N1CCC2(CCN(Cc3nccs3)CC2)CC1	12%	.
Cc1ccc(Cn2c(CNS(=O)(=O)c3c(C)cc(C)cc3C)nc3cccnc32)cc1	.	-19%
